High-throughput results from PubChem BioAssay.
PKD1 kinase inh = inhibitors of human PKD1 kinase, biochemical, fluorescence polarization; hit rate 0.056% among 200,000; inhibition, %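 (about 10 µM by stock and volumes)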; PKD1 kinase fluorescence polarization assay;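 active means inhibition of 50% or more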;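 further: controls were vehicle for no effect and a reference inhibitor for full effect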
RGS16-Gao HTS = modulators of RGS16 binding to Galphao, primary screen, biochemical, human proteins, multiplexed bead flow cytometry | Regulator of G-protein signaling 16 (Homo sapiens) + Guanine nucleotide-binding protein … | bead-based flow cytometry RGS16-Galphao binding, fluorescence; actives lie on both sides | binding response (% of control), % at 10 µM | hit rate 0.38% among 220,000 | AID 1441, 2008;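 active means below 25% or above 175%, edge rows of some plates excepted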;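 further: Galphao activated by GDP with aluminum fluoride before binding; 100% = wells without compound and 0% = beads without RGS; some results beyond the cut were filed as inactive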
Target sequence (O15492 whole entry, looked up): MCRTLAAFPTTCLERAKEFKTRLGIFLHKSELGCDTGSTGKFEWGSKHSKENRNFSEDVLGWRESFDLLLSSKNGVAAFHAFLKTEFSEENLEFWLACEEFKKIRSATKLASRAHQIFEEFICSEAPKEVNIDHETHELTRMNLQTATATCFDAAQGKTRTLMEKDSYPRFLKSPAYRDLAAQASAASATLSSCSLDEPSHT
Target sequence (P09471 whole entry, looked up): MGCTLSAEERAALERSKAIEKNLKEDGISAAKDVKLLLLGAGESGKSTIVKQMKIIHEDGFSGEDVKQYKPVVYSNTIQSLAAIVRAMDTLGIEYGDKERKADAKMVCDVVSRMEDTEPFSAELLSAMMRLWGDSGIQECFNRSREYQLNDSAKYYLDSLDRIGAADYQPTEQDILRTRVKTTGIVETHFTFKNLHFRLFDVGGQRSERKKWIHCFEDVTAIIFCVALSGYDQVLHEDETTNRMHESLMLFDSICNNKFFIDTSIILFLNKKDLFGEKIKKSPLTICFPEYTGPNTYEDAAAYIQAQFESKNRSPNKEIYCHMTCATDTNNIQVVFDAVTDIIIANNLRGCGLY
GALR2 ag = GALR2 receptor agonists, primary screen, cell-based. activation, %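 (tested at 5 µM)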. hit rate 0.48% among 140,000. GALR2-expressing cells, agonist activation read-out;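 active means above mean plus 3 SD of all compounds, about 5% in these data, not always enough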;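 further: 0% = vehicle buffer wells and 100% = reference agonist at full effect; tested in CHO reporter cells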
Target sequence (O43603 whole entry, looked up): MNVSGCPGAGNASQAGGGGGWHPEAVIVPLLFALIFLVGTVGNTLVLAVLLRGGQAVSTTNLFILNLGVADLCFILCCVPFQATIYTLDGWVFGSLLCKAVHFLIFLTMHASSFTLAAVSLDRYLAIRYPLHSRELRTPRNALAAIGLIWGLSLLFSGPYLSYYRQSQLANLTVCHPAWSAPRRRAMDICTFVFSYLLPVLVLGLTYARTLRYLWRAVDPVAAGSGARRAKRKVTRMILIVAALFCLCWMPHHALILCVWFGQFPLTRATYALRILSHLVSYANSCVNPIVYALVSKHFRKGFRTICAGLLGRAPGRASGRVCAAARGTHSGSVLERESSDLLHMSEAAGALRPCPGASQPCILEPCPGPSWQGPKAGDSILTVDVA
Insulin prom inh = inhibitors of insulin promoter-driven GFP, primary screen, imaging, TRM-6 cells (human fetal islet line), eGFP reporter, cell count | reporter expression induced with tamoxifen | inhibition, % at 2 µM | AID 1273, 2008 | hit rate 0.9% among 130,000;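 active means inhibition above the mean plus 3 SD, with well images judged a real hit on visual review, cut at about 60% in these data, passing the limit was not always enough; inconclusive means inhibition over the cutoff but images rejected on review; inactive means inhibition not above the cutoff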
HSV augment = enhancers of HSV replication in host cells, fold increase, host cell viability | HSV replication augmentation in cells | maximum fold increase | hit rate 0.005% among 220,000 | AID 1956, 2009;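 active means peak rise of 1.5-fold or more in the series; inconclusive means self-fluorescent or not available for retest; tested in PC3 cells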;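 further: first round at 10 µM; read as green reporter fluorescence; hits show the peak of a series up to 25 µM; 1 = signal of infected wells without compound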
Insulin prom inh cell count = also measured in Insulin prom inh; calls as there; normalized cell count, %; measured here: cell count, toxicity; reference of the scale not given here;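 cells exposed to compound for 48 h; stained nuclei by imaging scaled within each plate; lower means fewer cells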
HSV augment primary fold = further read-out of HSV augment, marked with its call; fold increase; compound at 10 µM; measured here: primary screen fold increase 10 uM; tested in PC3 cells;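 GFP signal in the first replicate; 1 = infected wells without compound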
* = called active by the depositor; i = inactive; ? = inconclusive; / = not tested or not shown.

SMILES	PKD1 kinase inh	RGS16-Gao HTS	GALR2 ag	Insulin prom inh	Insulin prom inh cell count	HSV augment	HSV augment primary fold
COc1ccc(C(=O)c2cnc3ccccc3c2-c2ccccc2)cc1	6	101	-1.9	/	/	i	0.92
COc1ccccc1CC(=O)NNS(=O)(=O)c1ccccc1[N+](=O)[O-]	2	102	/	31	107	i	0.85
COc1ccc(C(=O)c2cnc[nH]2)cc1OC	/	96	/	/	/	i	0.92
Cn1c(SCC(=O)c2c(N)n(C)c(=O)n(C)c2=O)nnc1-c1ccccc1	-11	112	0.3	19	93	i	0.99
Cc1ccc(C(=O)Nc2ccc(Cc3ccncc3)cc2)cc1[N+](=O)[O-]	-2	90	-1.6	/	/	/	/
CCOC(=O)CN1C(=O)S/C(=C/c2ccc(N3CCCCC3)o2)C1=O	-10	111	-2.6	-21	88	?	/
CCOC(=O)N1CCC(NC(=O)c2cc(S(=O)(=O)N3CCc4ccccc43)cn2C)CC1	-7	105	0.0	56	117	i	0.98
CCc1nc(-c2ccccc2)cc(=O)[nH]1	6	106	-0.1	28	151	i	1.1
CCOC(=O)C(Cc1ccccc1)C(=O)Nc1cccc2ccccc12 (centres undefined)	-1	103	-1.2	-76	113	i	0.94
CCCC(=O)OCC(=O)Nc1cc([N+](=O)[O-])ccc1OC	-2	96	/	/	/	i	0.88
Cc1cc(C)c2nc(N3CCC(C(=O)N4CCN(C(=O)c5ccco5)CC4)CC3)sc2c1	11	100	-1.8	20	124	i	1.3
COc1ccc(CC(=O)OCC(=O)Nc2ncc(Cl)cc2Cl)cc1OC	-1	98	-3.0	-31	97	i	0.92
O=C1c2ccccc2S(=O)(=O)N1Cc1nc2ccccc2s1	-1	96	-1.0	/	/	i	0.91
COc1ccccc1-c1cc(C(=O)N2CCN(c3ccc(F)cc3)CC2)no1	2	105	0.3	/	/	i	0.8
O=C(c1ccco1)N1CCN(S(=O)(=O)c2ccc3[nH]c(=O)oc3c2)CC1	-5	61	-1.5	12	113	i	1
C=CCNC(=S)/N=c1/ccccn1CC	/	101	/	/	/	i	0.9
CCOc1ccc(Br)cc1S(=O)(=O)Nc1ccc(NC(=O)c2ccccc2F)cc1	-7	103	0.8	-11	127	i	0.94
Cc1ccccc1-n1c(SC2CCOC2=O)nnc1-c1ccncc1 (centres undefined)	2	103	/	/	/	i	1
Cc1ccc(CC(=O)NCCCn2ccnc2)cc1	1	95	/	-23	125	i	1
Cn1c(SCC(=O)Nc2ccccc2)nnc1-c1ccc2nonc2c1	/	99	/	/	/	i	1.1
CCCCN(C)C(=O)c1nc2ccccn2c1CN1CCC[C@H]1C(=O)OC	0	104	/	/	/	i	1.6
CC(C)OP(=O)(OC(C)C)C(Nc1ccccc1)c1cccnc1 (centres undefined)	/	103	/	/	/	i	1
C=CCNC(=S)NNC(=O)COc1cccc(Cl)c1	1	100	-2.3	0	100	i	0.91
CC1CC(C)(C)CC2(C1)NC(=O)N(CC(=O)NCCc1c[nH]c3ccccc13)C2=O (centres undefined)	-6	79	-0.2	6	62	i	1
CN(CC1CCCO1)S(=O)(=O)c1ccc(C(=O)N2CCN(c3ccccc3)CC2)cc1 (centres undefined)	-7	103	/	-23	108	/	/

Quoted at random: five entries already listed.
SMILES	PKD1 kinase inh	RGS16-Gao HTS	GALR2 ag	Insulin prom inh	Insulin prom inh cell count	HSV augment	HSV augment primary fold
Cc1cc(C)c2nc(N3CCC(C(=O)N4CCN(C(=O)c5ccco5)CC4)CC3)sc2c1	11	100	-1.8	20	124	i	1.3
COc1ccccc1CC(=O)NNS(=O)(=O)c1ccccc1[N+](=O)[O-]	2	102	/	31	107	i	0.85
Cc1ccccc1-n1c(SC2CCOC2=O)nnc1-c1ccncc1 (centres undefined)	2	103	/	/	/	i	1
COc1ccc(CC(=O)OCC(=O)Nc2ncc(Cl)cc2Cl)cc1OC	-1	98	-3.0	-31	97	i	0.92
Cn1c(SCC(=O)Nc2ccccc2)nnc1-c1ccc2nonc2c1	/	99	/	/	/	i	1.1

Next compounds follow.
SMILES	PKD1 kinase inh	RGS16-Gao HTS	GALR2 ag	Insulin prom inh	Insulin prom inh cell count	HSV augment	HSV augment primary fold
c1ccc(-c2ncnc3cc4n(c23)CCC4)cc1	2	97	-0.3	50	95	i	0.91
Cc1cc(Cl)c(OCCOCCN2CCC(C)CC2)c(Br)c1	-13	111	-1.9	-35	110	i	0.85
CCOC(=O)c1cnn2c(C)cc(-c3ccccc3)nc12	-31	103	-2.2	60	138	i	1.1
CCOC(=O)c1sc(NC(C)=O)c(C(=O)OCC)c1C	-6	102	-1.6	/	/	i	0.95
CC(=O)c1ccc(NC(=S)N2CCN(CCN3C(=O)c4cccc5cccc(c45)C3=O)CC2)cc1	5	100	-0.9	32	180	i	1
O=C1OCCC1Sc1nc2ccccc2c(=O)n1Cc1ccc(F)cc1 (centres undefined)	1	103	-0.6	21	155	i	1.1
Cc1nc(Cl)c2c(n1)N(CC(N)=O)C(=O)CO2	4	106	0.3	/	/	i	0.95
COC(=O)Cn1ncc2c3ccccc3n(C)c2c1=O	-11	106	1.2	-7	104	i	1.1
Cc1ccc(C)c(Nc2cc(C(=O)NCc3cccnc3)c3ccccc3n2)c1	/	99	/	/	/	i	1
CN1CC2([N+](=O)[O-])CC=C(OCCO)C([N+](=O)[O-])(C1)C2 (centres undefined)	-7	102	-0.7	8	119	i	0.98
c1ccc(-c2nnc(CN3CCN(c4ccccc4)CC3)o2)cc1	1	103	/	/	/	i	1
Cc1cc(C(=O)N2CCN(C(c3ccccc3)c3ccccc3)CC2)on1	-1	102	/	/	/	i	1
O=C(CCN1C(=O)c2ccccc2C1=O)N1CCOCC1	-13	88	-1.8	-77	59	i	1
Cn1c(SCC(=O)NNC(=O)c2ccc(Cl)cc2)nnc1-c1cccnc1	-9	105	/	18	81	i	1
O=C(NCc1ccco1)c1ccccc1-c1nc(-c2ccccc2)no1	-5	96	-2.9	-17	101	i	0.92
CSCCC(NC(=O)c1ccc([N+](=O)[O-])cc1Cl)C(=O)OCC(=O)NC1CCCC(C)C1C (centres undefined)	-9	72	-0.2	4	53	i	0.9
Cc1cc(-c2nn(-c3ccccc3F)cc2CN2CCCC(O)C2)c(C)s1 (centres undefined)	3	99	/	/	/	i	0.91
O=C(C1CCC(Cn2c(=S)[nH]c3ccccc3c2=O)CC1)N1CCOCC1 (centres undefined)	3	95	-1.7	/	/	i	1
COc1cc(C(C#N)N2CCC(c3ccccc3)=N2)ccc1O (centres undefined)	/	96	/	/	/	i	0.92
CCOC(=O)COn1c(=O)c(=O)n(OC)c2ccccc21	-5	101	-2.7	11	141	i	0.81
CCOc1ccc(OCC)c(NC(=O)CSc2nnc(Cn3cnc4ccccc43)n2C)c1	5	23	-0.6	-26	93	i	1
N#Cc1nc(COc2ccc(Cl)cc2)oc1N1CCCCCC1	1	103	-1.2	/	/	i	0.89
CCC(C)c1ccccc1NC(=S)Nc1cccnc1 (centres undefined)	-9	303	-0.6	-32	56	i	0.81
Cn1c(=O)c2c(nc(N/N=C/c3cccs3)n2Cc2ccccc2)n(C)c1=O	-9	92	-0.9	/	/	i	0.86
COc1ccc(S(=O)(=O)N2CCc3ccccc32)cc1C(=O)Nc1cccnc1	/	103	/	/	/	i	0.94

Individual results from the entries so far.
O=C1OCCC1Sc1nc2ccccc2c(=O)n1Cc1ccc(F)cc1 (centres undefined) in Insulin prom inh cell count = 155
CCOc1ccc(OCC)c(NC(=O)CSc2nnc(Cn3cnc4ccccc43)n2C)c1 in HSV augment primary fold = 1

7 of the entries above in order of their number in HSV augment primary fold, low to high.
| structure | PKD1 kinase inh | RGS16-Gao HTS | GALR2 ag | HSV augment primary fold |
| --- | --- | --- | --- | --- |
| COc1ccccc1-c1cc(C(=O)N2CCN(c3ccc(F)cc3)CC2)no1 | 2 | 105 | 0.3 | 0.8 |
| Cc1cc(Cl)c(OCCOCCN2CCC(C)CC2)c(Br)c1 | -13 | 111 | -1.9 | 0.85 |
| O=C1c2ccccc2S(=O)(=O)N1Cc1nc2ccccc2s1 | -1 | 96 | -1.0 | 0.91 |
| O=C(NCc1ccco1)c1ccccc1-c1nc(-c2ccccc2)no1 | -5 | 96 | -2.9 | 0.92 |
| CCOC(=O)N1CCC(NC(=O)c2cc(S(=O)(=O)N3CCc4ccccc43)cn2C)CC1 | -7 | 105 | 0.0 | 0.98 |
| Cc1ccccc1-n1c(SC2CCOC2=O)nnc1-c1ccncc1 (centres undefined) | 2 | 103 | / | 1 |
| COC(=O)Cn1ncc2c3ccccc3n(C)c2c1=O | -11 | 106 | 1.2 | 1.1 |

Further results follow:
SMILES	PKD1 kinase inh	RGS16-Gao HTS	GALR2 ag	Insulin prom inh	Insulin prom inh cell count	HSV augment	HSV augment primary fold
Cc1cc(/C=C(\C#N)C(=O)Nc2ccccc2)c(C)n1-c1cccnc1	4	101	-0.1	/	/	i	0.89
CC(C)(CO)N1CCN(C(=S)Nc2ccccc2)CC1	/	99	/	/	/	i	0.92
CCC(Oc1ccccc1)C(=O)Nc1ccc(-c2nnc(-c3ccco3)o2)cc1 (centres undefined)	-2	66	-0.1	67	87	i	0.92
Cc1ccc(C2=Nc3ccc(Br)cc3C(c3ccncc3)=NN2)cc1	-6	106	/	/	/	i	0.97
O=C(Nc1cccc(S(=O)(=O)N2CCCC2)c1)c1ccc2c(=O)n3c(nc2c1)CCCCC3	-5	118	-0.5	24	70	i	0.64
CC1(C)Cc2nc3sc4c(=O)n(CC(N)=O)cnc4c3cc2CO1	-8	102	-0.2	2	61	/	/
O=C(Nc1ccc2snnc2c1)N1CCOCC1	11	104	-0.4	/	/	i	0.95
CN1CCN(c2nc3c(c(=O)[nH]c(=O)n3C)n2CCCSc2nnnn2-c2ccccc2)CC1	-4	94	/	/	/	i	0.94
COc1cc(C2C(C#N)=C(N)Oc3c2ccc2ccccc32)ccc1OCC(=O)Nc1ccccc1C (centres undefined)	-6	111	-1.2	27	105	i	0.82
CCC(=O)NC1OC(CO)C(O)C(O)C1O (centres undefined)	0	93	/	/	/	i	0.98
CC(=O)N1CCc2cc(Br)cc(S(=O)(=O)CCC(=O)N3CCN(c4ccccn4)CC3)c21	-1	104	/	-53	114	i	0.88
CS(=O)(=O)NCc1csc(-c2ccccc2)n1	-3	97	-2.7	14	75	i	1.1
CCOC(=O)c1nc(-c2ccccc2)oc1N1CCOCC1	4	102	/	/	/	i	0.99
CCc1cc2ccc(OC)cc2nc1SCC(=O)NNC(C)=O	2	107	/	/	/	i	0.98
CN(C)C=Nc1ncc2c3ccccc3n(CCN(C)C)c2c1C#N	21	104	-0.8	45	115	i	0.75
Cc1ccc(-n2nnc3c(SCC(=O)NCC4CCCO4)ncnc32)cc1 (centres undefined)	-15	99	-1.3	-18	100	i	0.79
CCCCc1ccc(NC(=S)N2CCC(O)CC2)cc1	-4	102	/	/	/	i	1
COC(=O)c1ccc(NC(=O)CSC2=NCCN2)cc1	6	101	-1.4	/	/	i	0.84
CCCN1C=CC(=CC=C(C#N)C#N)C=C1	/	101	/	/	/	?	/
Cc1c(CN2CCC(CO)(Cc3cccc(C(F)(F)F)c3)CC2)c2ccccc2n1C	0	94	/	/	/	i	0.73
O=C(COc1ccccc1Cl)NC(=S)Nc1ccc(CN2CCOCC2)cc1	-2	99	0.4	42	175	i	0.93
CC(=C/C(=O)O)/C(=C\c1ccc(Br)o1)C(=O)O	/	100	/	/	/	i	1.1
CCOC(=O)C1CCCN(c2cc(C)nc3cc(-c4ccc(Cl)cc4)nn23)C1 (centres undefined)	-6	103	-1.8	-115	81	i	0.87
CCOC(=O)CSc1nnc(Cc2cc(=O)[nH]c(=O)[nH]2)n1-c1ccc(Cl)cc1	3	101	-2.8	/	/	i	1.1
Cc1[nH]c2ccccc2c1/C=C/c1nc2ccccc2c(=O)n1-c1cccc([N+](=O)[O-])c1	-5	113	3.0	/	/	/	/
COc1ccc(OC)c(NC(=O)Cn2c(CCC(=O)O)ccc2-c2ccccc2)c1	5	95	-0.4	-15	158	i	0.95
CCOC(=O)Cc1csc(NC(=O)c2c(O)c3c(n(CC(C)C)c2=O)CCCC3)n1	/	101	/	/	/	i	1
O=C(Nc1nnc(-c2ccncc2)s1)C1CCCO1 (centres undefined)	-2	103	-2.0	42	92	i	1.1
CCOC(=O)C1=C(C)OC(N)=C(C#N)C1c1cccs1 (centres undefined)	2	96	/	-17	96	i	1.1
Cc1occc1C(=O)Nc1nccs1	-5	87	-2.8	-13	112	i	0.82
